# PABP polyA inh – blocks human PABP binding to poly(A) RNA. P11940. fluorescence polarization. inhibition, % at 35 µM. 1% of 290,000 active. AID 2014;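 active means 50% or more with normal probe brightness, or confirmed in later tests; about a fifth of its hits are not listed in these tables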;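 further: calls also rest on retests at 20 µM and on dose response follow-up; controls were probe without protein and protein plus probe with vehicle; some compounds called inactive have numbers as strong as hits; many hits fall short of the cut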
# Target sequence (P11940 whole entry, looked up): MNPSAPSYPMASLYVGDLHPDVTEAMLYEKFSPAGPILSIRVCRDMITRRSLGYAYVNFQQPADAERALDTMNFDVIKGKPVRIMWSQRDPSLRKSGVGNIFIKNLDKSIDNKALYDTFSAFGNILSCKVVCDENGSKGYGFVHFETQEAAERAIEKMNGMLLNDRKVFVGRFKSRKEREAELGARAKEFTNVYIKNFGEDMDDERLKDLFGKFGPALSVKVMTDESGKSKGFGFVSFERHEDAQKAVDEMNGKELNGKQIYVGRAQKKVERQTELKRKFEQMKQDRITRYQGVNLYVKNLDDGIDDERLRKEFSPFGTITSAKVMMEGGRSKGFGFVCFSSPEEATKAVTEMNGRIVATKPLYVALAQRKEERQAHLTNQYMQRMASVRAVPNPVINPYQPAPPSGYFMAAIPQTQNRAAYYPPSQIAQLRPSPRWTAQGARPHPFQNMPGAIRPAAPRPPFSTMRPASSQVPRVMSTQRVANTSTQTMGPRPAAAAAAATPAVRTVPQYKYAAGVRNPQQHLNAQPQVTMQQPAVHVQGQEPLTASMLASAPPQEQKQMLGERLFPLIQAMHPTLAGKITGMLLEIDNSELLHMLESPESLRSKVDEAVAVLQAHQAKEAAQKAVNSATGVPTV
# eIF4H inh – inhibitors of RNA binding by human eIF4H; eIF4H fluorescence polarization binding assay; inhibition, % at 35 µM; 0.94% of 290,000 active;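 active means 50% or more with normal probe brightness, or confirmed in later tests; about a fifth of its hits are not listed in these tables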;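 further: calls also rest on retests at 20 µM and on dose response follow-up; 0% = protein and probe with vehicle and 100% = probe without protein; strong numbers were not always called active; many hits fall short of the cut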
# UUG fidelity – alters start codon recognition fidelity in yeast | activity score, % at 18.7 µM | S. cerevisiae UUG-firefly luciferase reporter, luminescence/redox ratio | AID 602363 | 0.13% of 350,000 active;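 active means replicate mean at a twofold rise or more, about +100% in these data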;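 further: firefly luciferase made from a UUG start codon reports start codon fidelity; reporter light over untreated wells divided by growth signal over untreated wells; some hits fall short of that in this replicate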
# Rce1 inh – inhibitors of yeast Ras-converting enzyme; 0.27% of 290,000 active; yeast membranes, quenched prenylated peptide cleavage fluorescence; calls only; AID 2563;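 active means fall in fluorescence gain of 50% or more versus controls, with final raw signal at or below 3038400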;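 further: plate controls were neutral control wells for no effect and wells lacking membranes for full effect; tested at 10 µM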
# Target sequence (Q03530 whole entry, looked up): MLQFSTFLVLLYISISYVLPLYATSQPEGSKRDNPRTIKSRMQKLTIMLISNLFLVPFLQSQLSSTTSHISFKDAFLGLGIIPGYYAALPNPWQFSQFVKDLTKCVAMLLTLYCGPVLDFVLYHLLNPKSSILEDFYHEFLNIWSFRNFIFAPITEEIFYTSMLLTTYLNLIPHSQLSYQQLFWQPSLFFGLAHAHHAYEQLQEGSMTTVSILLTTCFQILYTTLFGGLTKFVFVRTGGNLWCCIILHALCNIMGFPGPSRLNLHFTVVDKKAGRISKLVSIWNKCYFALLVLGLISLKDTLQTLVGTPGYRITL
# CSC inhib – cancer stem cell inhibition. cancer stem cell-like cells viability, luminescence. inhibition, % at 7.5 µM. 1.1% of 300,000 active. AID 2717;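 active means mean at 75% or more and at least half the replicates too; tested in HMLE shEcad cells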;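 further: 0% = median of negative and 100% = median of positive control wells; the first replicate is given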
# Env fusion inh – inhibitors of HIV Env-mediated cell fusion. AID 651610. inhibition, % at 12.3 µM. 1.1% of 360,000 active. HeLa-JRFL Env/CEM21 cell fusion, luciferase;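 active means mean replicate inhibition score of at least 50 and every replicate individually at or above 50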;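 further: 0% = plate neutral controls and 100% = maraviroc near 300 nM; one replicate is shown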
# MT1-MMP act inh – blocks activation of human MT1-MMP; P50281; HT1080 RFP-PRO-GFP cells, GFP/RFP ratio fluorescence, overnight; percent of plate control window, DMSO zero; GFP/RFP ratio change, % at 20 µM; 0.061% of 360,000 active; AID 651647;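 active means GFP/RFP ratio change of at least 30% with cell ATP level not reduced by more than half and red fluorescence within 50% of control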; further: strong numbers were not always called active
#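 Compound: 20 µM single dose, 1% DMSO / System: HT1080 RFP-PRO-GFP cells / Controls: DMSO and RFP-L50D-GFP cell wells / Read-out basis: GFP/RFP fluorescence ratio / Schedule: overnight compound exposure at 37 °C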
# MT1-MMP act inh RFP – second read-out of MT1-MMP act inh, no call of its own (marks repeat the call); RFP signal change, %; measured here: RFP expression control read;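 0 = vehicle wells; hits needed this value within 50% of zero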
# Starred values were filed as active, the others as inactive; i = inactive; . = not tested or not shown.
# The first six entries, to show the layout:
SMILES,PABP polyA inh,eIF4H inh,UUG fidelity,Rce1 inh,CSC inhib,Env fusion inh,MT1-MMP act inh,MT1-MMP act inh RFP
CCCn1cnc2c(c1=O)c1nc3ccccc3nc1n2CCc1ccccc1,-6,-7,.,i,-14,.,-1,1
CCN(CC(=O)N1CCN(Cc2ccccc2)CC1)S(=O)(=O)c1ccccc1,14,-4,11,i,-4,5,1,-1
CCOC(=O)c1c(C)c(C(=O)NCc2ccccn2)c(C)n1CC,1,9,.,i,0,.,2,0
COc1ccc(-n2c(C)nn(C)c2=O)c(OC)c1,5,2,43,i,10,14,-1,5
COc1ccc(C2SCCN2C(=O)c2ccc([N+](=O)[O-])cc2)cc1 (stereo not given),5,-9,-1,i,-8,12,-1,3
NC(=O)NCCCC(=O)OCC(=O)c1ccc2ccccc2c1,-6,-4,.,i,-12,8,2,7

# The listing, repeating the preview:
SMILES,PABP polyA inh,eIF4H inh,UUG fidelity,Rce1 inh,CSC inhib,Env fusion inh,MT1-MMP act inh,MT1-MMP act inh RFP
CCCn1cnc2c(c1=O)c1nc3ccccc3nc1n2CCc1ccccc1,-6,-7,.,i,-14,.,-1,1
CCN(CC(=O)N1CCN(Cc2ccccc2)CC1)S(=O)(=O)c1ccccc1,14,-4,11,i,-4,5,1,-1
CCOC(=O)c1c(C)c(C(=O)NCc2ccccn2)c(C)n1CC,1,9,.,i,0,.,2,0
COc1ccc(-n2c(C)nn(C)c2=O)c(OC)c1,5,2,43,i,10,14,-1,5
COc1ccc(C2SCCN2C(=O)c2ccc([N+](=O)[O-])cc2)cc1 (stereo not given),5,-9,-1,i,-8,12,-1,3
NC(=O)NCCCC(=O)OCC(=O)c1ccc2ccccc2c1,-6,-4,.,i,-12,8,2,7
Cn1ccnc1C(=O)c1ccc(NN)c([N+](=O)[O-])c1,1,12,.,i,7,30,1,-2
Cc1nn(CC(=O)N2CCN(c3ccc(Cl)cc3)CC2)c(=O)c2cccn12,-16,-2,-16,i,0,-24,4,2
Cc1cccc(N2CCN(S(=O)(=O)c3c(C)[nH]c(=O)[nH]c3=O)CC2)c1C,3,-4,-12,i,-5,-5,5,-1
COc1cc(/C=C/C(=O)OCC(=O)Nc2ccc3[nH]c(=O)[nH]c3c2)ccc1OC(F)F,.,.,-9,.,.,-9,0,5
CCOc1ccccc1N(C)C(=O)Cn1ncc2c([nH]c3ccccc32)c1=O,6,-3,4,i,1,-12,-1,-4
O=C(Oc1cc(=O)oc2c1c(=O)n1c3c(cccc23)CC1)c1ccc(F)cc1,3,8,-6,i,-5,-4,3,7
OC[C@@H]1CN(Cc2ccccc2)C[C@H](n2cnc3c(NC4CC4)ncnc32)O1,.,.,-10,.,.,14,1,-1
OCCCn1c(C2CCCN2c2nc(-c3ccc(F)cc3)cs2)nc2cc(Cl)c(N3CCCCC3)cc21 (stereo not given),.,.,-24,i,1,29,1,0
O=C(COc1ccc(F)cc1)N1CCCCCCC1,-6,-9,-15,i,-8,-48,-5,-1
CCCNC(=O)COC(=O)c1ccc(S(=O)(=O)N2CCCCCC2)cc1,-4,-4,-3,i,15,.,3,3
O=C(Nc1ccc(N2CCOCC2)cc1)c1c(F)cccc1Cl,7,9,-9,i,1,-2,4,9
C=CCn1c(SCC(=O)Nc2c(C)cccc2C)nnc1-c1cnccn1,-4,-1,-10,i,-11,-7,-3,-6
O=C(N/N=C/c1cccnc1)c1cc(C2CC2)nc2ccccc12,9,1,-11,i,0,.,-2,0
O=C(CCCCn1ccc(=O)[nH]c1=O)Nc1ccc(O)c(C(=O)O)c1,.,.,28,.,.,13,2,3
Cc1ccc(CN2CCN(Cc3cnc(C)s3)CC2CCO)o1 (stereo not given),10,18,.,i,1,5,3,2
Cc1cc(C(=O)CSc2n[nH]c(-c3ccccc3F)n2)c(C)n1Cc1cccs1,-2,-14,-8,i,0,.,-2,-7
CC(C)(C)C(=O)N(Cc1ccccc1)c1ccccn1,-6,-6,-16,i,-8,16,-3,-3
C[C@@H](C(=O)NCc1ccc(S(C)(=O)=O)cc1)[C@@H]1C[C@@]1(C)[C@@H](NC(=O)OCc1ccccc1)c1ccccc1,31,-12,-29,.,-1,-12,-1,-3
CCOC(=O)N1CCC(=NNc2ccc(S(=O)(=O)N3CCOCC3)cc2[N+](=O)[O-])CC1,1,1,.,i,.,4,9,1
O=C(COc1ccc(/C=N/NC(=O)c2cccnc2)cc1)Nc1ccccc1,1,-10,-11,.,1,-10,1,-1
CC(NC(=O)c1ccccc1Cl)C1CC2CCC1C2 (stereo not given),7,-1,-18,i,-6,3,0,-1
CCc1cc(C(=O)Nc2cc(Cl)ccc2N2CCN(C)CC2)sc1C,.,.,.,i,2,7,-3,-3
NC(=O)C1CCCN(C(=O)CCc2nnc(C3(c4ccc(Cl)cc4)CCC3)o2)C1 (stereo not given),5,8,-12,i,38,-3,0,-4
CCN(CC)C(=O)C(C(=O)c1cccc([N+](=O)[O-])c1)n1cc(Cl)ccc1=O (stereo not given),8,2,.,i,-3,6,0,2
CCC(C)NC(=O)C1CCCN(S(=O)(=O)c2ccc3c(c2)CC(C)N3C(C)=O)C1 (stereo not given),-15,6,9,i,-10,59*,-2,-4
COc1ccccc1-c1csc(C(O)(c2ccccc2)C(F)(F)F)n1 (stereo not given),.,.,-1,.,.,33,1,0
COc1ccc(C(=O)NCC(=O)OCC(=O)NCCC2=CCCCC2)cc1,6,-2,5,i,8,16,1,3
COc1ccccc1-n1nnnc1SCC(=O)NCC1CCCO1 (stereo not given),.,.,.,i,-5,-20,0,-2
COc1cccc(-n2c(Cc3cc(=O)[nH]c(=O)[nH]3)nnc2SCc2cccc(C(F)(F)F)c2)c1,-3,-4,.,i,-3,7,1,0
O=C(CNC(=O)c1cccc(F)c1)N/N=C/c1ccc(O)c([N+](=O)[O-])c1,8,-9,.,i,-8,14,6,4
O[C@H]1COC2C1OC[C@@H]2O (stereo not given in full),8,5,-4,i,.,0,3,2
COc1cccc(CN(C)C(=O)c2[nH]c(C)c(C(C)=O)c2C)c1OC,2,16,-12,i,.,28,-8,-19
COC(=O)c1ccc(NC(=O)COc2ccc(S(=O)(=O)NC(C)(C)C)cc2)cc1,-1,-8,.,i,-3,-6,0,4
O=c1oc2cc(OCc3ccc(C(F)(F)F)cc3)ccc2cc1-c1ccccn1,-6,-15,-28,i,-8,.,-8,-3
CC(=O)c1ccc(-c2ccc([C@H]3[C@H]4C=CC[C@@H](C)[C@@H]4C(=O)N3Cc3ccccc3)c(F)c2)cc1,-10,-8,-16,i,75*,16,4,-14
Cc1cc(C)n(C(=O)CNC(=O)c2ccco2)n1,5,-6,-13,i,-7,.,7,2
CCCCN1C(=O)C(=O)N(CC(=O)Nc2cccc(C(C)=O)c2)C1=O,.,.,-35,.,-12,-7,-2,1
Cc1ccc(OCC(=O)Nc2ccc(N3CCCC3)cc2)cc1C,6,39,5,i,4,-23,6,0
CCOC(=O)N1CCN(C2CCCN(C(=O)c3cccc(Cl)c3)C2)CC1 (stereo not given),3,-2,-6,i,-12,-19,1,1
Cc1cc2c(cc1C)C(c1cccc(F)c1)CC(=O)N2 (stereo not given),-3,-8,-3,i,6,23,4,-9
O=C(CSc1nc2ccccc2s1)Nc1nccs1,1,-8,-21,i,4,-69,5,3
O=C(c1ccncc1)N1N=C(C2CC2)CC1(O)C(F)(F)F (stereo not given),28,-9,.,i,-10,21,1,2
Cn1c(N)c(C(=O)CSc2nc3ccccc3c(=O)n2Cc2ccccc2)c(=O)n(C)c1=O,6,-12,.,i,-2,-9,2,1
COc1cc([N+](=O)[O-])ccc1-c1ccc(C(=O)Nc2ccc(NC(C)=O)cc2)o1,12,9,-25,i,-3,.,-2,4
# (further entries)
SMILES,PABP polyA inh,eIF4H inh,UUG fidelity,Rce1 inh,CSC inhib,Env fusion inh,MT1-MMP act inh,MT1-MMP act inh RFP
Nc1ncnc2c1ncn2[C@@H]1O[C@H](CNCc2cn(CC(=O)NC3CC3)c3ccccc23)[C@@H](O)[C@H]1O,.,.,-12,.,-7,-4,1,2
c1ccc(-c2cc3c(N4CCCCC4)ncnc3s2)cc1,-17,0,.,i,20,-24,-1,-1
COc1ccccc1/C=N/NS(=O)(=O)c1ccccc1,-3,-1,1,i,-11,8,2,2
Cc1cccc(C)c1NC(=O)c1c[nH]c2ccccc12,-5,-10,-14,i,-9,-40,4,4
CCc1ccccc1NC(=O)NNC(=O)CCc1ccc(OC)cc1,11,-8,-9,i,-15,-7,-1,4
COC(=O)CN(c1nc(C)c(Br)c(OC)n1)S(=O)(=O)c1ccccc1,14,2,-16,i,-2,9,-4,-4
Cc1cc(C(=O)OC(C)C(=O)N2CCc3ccccc32)ccc1[N+](=O)[O-] (stereo not given),.,.,.,i,3,5,-3,2
Cn1c(=O)c2c(nc(N/N=C/c3cccnc3)n2Cc2ccccc2)n(C)c1=O,5,-7,.,i,-3,12,2,-3
CC(C)C[C@@H](CNCC(=O)[C@H](Cc1c[nH]c2ccccc12)NC(=O)c1[nH]cnc1C(=O)N[C@@H](C)CN)NC(=O)c1nc[nH]c1C(=O)N[C@@H](Cc1ccccc1)C(=O)O,.,.,131*,.,.,4,0,2
O=C(CC1C(=O)NCCN1C(=O)c1ccccc1)Nc1cc(Cl)ccc1Cl (stereo not given),1,-5,-16,i,-19,-9,-4,-2
Cc1cc(S(=O)(=O)Nc2noc3ccccc23)ccc1F,4,-7,-11,i,-4,-11,3,3
CCCOc1cccc(C(=O)Nc2cccc(NC(=O)c3ccco3)c2)c1,2,1,-14,i,-3,.,9,1
CCOc1ccc(CCN2C(=S)N([C@@H](CC(C)C)CN3CCCC3CN3C(=S)NC[C@@H]3CC(C)C)C[C@@H]2Cc2ccc(O)cc2)cc1 (stereo not given in full),.,.,-22,.,.,19,0,-12
CC[n+]1c(/C=C2/C=C(C)CC(C)C2)sc2ccccc21 (stereo not given),-6,-1,.,.,11,8,-5,5
COc1cc(C(=O)NC(c2ccccc2)c2ccccc2)cc(OC)c1OC,-2,-10,-14,i,-2,-6,1,0
CC(=O)c1cccc(NC(=O)CC2S/C(=N/N=C/c3cccs3)NC2=O)c1 (stereo not given),-3,7,.,i,-10,6,4,8
COc1ccc(OCC(O)CN2C(=O)NC(C)(C)C2=O)cc1 (stereo not given),-6,2,-6,i,3,-33,3,6
Cc1cc2c(cc3c(=O)n(CC(=O)NCCCN4CC(C)CC(C)C4)ncn32)s1 (stereo not given),-5,1,2,i,4,-5,2,2
COC(=O)C(Cc1c[nH]c2ccccc12)NC(C)=O (stereo not given),0,-6,-17,i,-11,.,6,2
Cc1cc(C(=O)CN2C(=O)NC3(CCCCC3)C2=O)c(C)n1Cc1ccc2c(c1)OCO2,-2,2,-4,i,-10,-36,3,-6
CC(CC(=O)N1CCN(c2cccc(Cl)c2)CC1)S(=O)(=O)c1ccc2c(c1)NC(=O)CO2 (stereo not given),-1,2,10,i,-8,13,1,-30
O=C(COC(=O)/C=C/c1ccccc1)NC(=O)NCc1ccccc1,.,.,-6,.,.,0,-2,6
Cc1ccnc(Nc2nc(-c3c(C)nc4sccn34)cs2)c1,4,-3,-30,i,17,-100,3,-21
COC(=O)c1ccc(CSc2nc(C)nc3sc(C)c(C)c23)o1,3,3,-17,i,.,11,12,0
CCC(C)(C)C1CCc2c(sc(NC(=O)c3cccs3)c2C(N)=O)C1 (stereo not given),21,0,11,i,-2,-38,-6,-4
CCOn1c(=O)c(=O)n(OCc2ccccc2)c2ccccc21,-8,-12,-11,i,7,.,4,1
Cn1c(O)c(N=NC(=O)Cn2ccc(C(F)(F)F)n2)c2ccccc21,2,-2,-9,i,4,-10,3,1
CC1=C(C(=O)OC(C)C)C(c2cccs2)N2C(=O)CCSC2=N1 (stereo not given),2,-6,-7,i,.,-29,3,-1
Cc1ccc(C(c2sc3ncnn3c2O)N2CCC(C)CC2)cc1 (stereo not given),-4,8,-11,i,-9,-65,-4,4

# Bioassay records: PubChem BioAssay, several laboratories
